GIV-Gai inh: inhibitors of GIV peptide binding to Galpha-i3, primary screen, biochemical, fluorescence polarization, FITC-GIV GBA peptide, rat Galphai3. Guanine nucleotide-binding protein G(i) subunit alpha-3 (Rattus norvegicus), P08753. 90 min; active compounds read low; scaled: aluminum fluoride 0%, vehicle 100%. percent of control (FP), % (test concentration not listed). actives 0.42% (n = 210,000);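 active = replicate mean at 85% of control or lower, very high polarization wells dropped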;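 also: lower values mean more displacement of the GIV peptide from Galpha-i3; wells of about 15 µL received 100 nL stock; the first replicate is given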
Target sequence (P08753 whole entry, looked up): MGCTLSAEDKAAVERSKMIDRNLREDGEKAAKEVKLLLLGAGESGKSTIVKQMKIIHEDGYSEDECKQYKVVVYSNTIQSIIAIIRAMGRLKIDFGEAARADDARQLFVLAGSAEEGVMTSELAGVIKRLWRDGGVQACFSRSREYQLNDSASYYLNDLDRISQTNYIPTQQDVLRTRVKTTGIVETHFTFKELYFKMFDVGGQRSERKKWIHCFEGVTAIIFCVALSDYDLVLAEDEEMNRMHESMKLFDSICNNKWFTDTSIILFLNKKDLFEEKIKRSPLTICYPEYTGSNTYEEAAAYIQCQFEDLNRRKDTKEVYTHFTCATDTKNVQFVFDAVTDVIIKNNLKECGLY
* hit, by the source's call. An excerpt. The share of hits here may be higher or lower than overall.

SMILES	GIV-Gai inh
CC(C)c1csc(-c2csc(S(=O)(=O)NCc3ccc(N(C)C)cc3)c2)n1	100.1
CCC(=O)Nc1sc2c(c1C(=O)Nc1ccccc1CC)CCC2	115.0
CCC1CCCCN1CCCNC(=O)C1CCN(c2nccc3c(C)nn(CC)c23)CC1 (centres undefined)	109.2
CCOC(=O)C1=C(c2ccccc2)N=c2s/c(=C\c3cccnc3)c(=O)n2C1c1ccc(OC)c(OC)c1 (centres undefined)	98.8
CCOC(=O)C1=C(N)N(c2ccc(OC)cc2)C2=C(C(=O)CC(C)(C)C2)C1c1cc(OC)c(OC)c(OC)c1 (centres undefined)	106.2
O=C1CSC2(C(=O)N(CN3CCCCC3)c3ccccc32)N1c1cccc(C(F)(F)F)c1 (centres undefined)	101.0
CN1CCN(CCNC(=O)c2cccc(CN3C(=O)C4CCCN4C(=O)c4ccccc43)c2)CC1 (centres undefined)	98.0
COc1ccc(OC)c(NC(=O)c2cc3c(C)nn(-c4ccc(Cl)cc4)c3s2)c1	99.2
CCCCCSc1nnc2n(Cc3ccc(OC)cc3)c(=O)c3c(n12)-c1ccccc1CC31CCCCC1	120.3
CCCOc1ccc(C2CC(=O)Nc3c2c(C)nn3-c2ccc3nnc(C)n3n2)cc1 (centres undefined)	104.3
CC(=O)N1CC(=O)N(OCc2ccccc2)C1c1ccc(Cl)cc1Cl (centres undefined)	119.8
CCOC(=O)CSc1nc2ccccc2c(=O)n1CC1CCC(C(=O)NCC2CCCO2)CC1 (centres undefined)	105.2
O=C1/C(=C/c2ccc([N+](=O)[O-])cc2)C=C(c2ccccc2)N1c1ccc(I)cc1	113.1
Cc1cccc(C(O)(C(=O)NN(C(=O)c2cccnc2Cl)c2ccccc2)c2cccc(C)c2)c1	108.4
Cc1cc(N2CCCC2)n2nc(CN3CCCC(C)C3)nc2n1 (centres undefined)	104.5

SMILES	GIV-Gai inh
Cc1noc(C)c1S(=O)(=O)N1CCC(c2nc3cccnc3n2C)C1 (centres undefined)	102.0
CC(C)c1ccc(N(C)S(=O)(=O)c2ccc3[nH]cc(C(=O)NCCCN4CCOCC4)c(=O)c3c2)cc1	103.7
O=C(O/N=C1\CCCc2c1sc1nc3n(c(=O)c21)CCCCC3)c1ccccc1	108.5
CCN(CC)CCOc1cc2c(cc1Cl)-c1cc(Cl)c(OCCN(CC)CC)cc1C2=O	106.1
COc1ccc(-c2noc(-c3nn(-c4ccc(C)c(C)c4)ccc3=O)n2)cc1OC	102.0
Cc1nc2cc(NC(=O)c3ccc(S(=O)(=O)N4CCCCC4C)cc3)ccc2s1 (centres undefined)	96.6
Cc1ccc2nc(-c3ccc(S(=O)(=O)N4CCCCCC4)cc3)cn2c1	101.5
O=C1C2C(C(=O)N1c1ccc(Br)cc1)N1CCCN1C2c1ccccc1 (centres undefined)	101.9
O=C(C1CCOC1)N1CCCn2nc(-c3cccs3)cc2C1 (centres undefined)	106.6
O=C(CSc1nnc2ccc(C(=O)NCc3ccccc3)cn12)Nc1ccc(Br)cc1	100.1
CCCc1noc(Cn2cnc3c4ccccc4n(CC(N)=O)c3c2=O)n1	106.0
COc1c2ccoc2nc2c(OC)cccc12	96.7
O=C(NC1CCCc2ccccc21)c1cccc(-c2cc(N3CCCC3)ncn2)c1 (centres undefined)	107.5
Cc1csc2nc(-c3cccc(NS(=O)(=O)c4cccnc4)c3)cn12	105.5
CCCCCNc1ncnc2c1sc1nc(CCC)c3c(c12)CC(C)(C)OC3	100.8

SMILES	GIV-Gai inh
Cc1[nH]nc2c1C1(C(=O)Nc3ccc([N+](=O)[O-])cc31)C(C#N)=C(N)O2 (centres undefined)	97.1
Cc1cc([N+](=O)[O-])ccc1S(=O)(=O)N1c2cccc3cccc(c23)S1(=O)=O	113.9
CCN(CC)c1ccc(N2C(=O)/C(=C/c3ccc(Cl)cc3)C=C2c2ccccc2)cc1	105.6
COc1ccc(N2CCN(c3ncnc4c3cnn4-c3cccc(C)c3)CC2)cc1	106.0
COc1ccc(CSc2nnc3c(S(=O)(=O)N4CCCC4)cccn23)cc1F	107.1
COc1ccc(-c2c(C#N)c(N)nc3sc(C(=O)OCc4ccccc4)c(N)c23)cc1OC	100.9
CCN1CCN(S(=O)(=O)c2c(-c3nc(C4CC4)no3)c(C)n(CC)c2C)CC1	107.7
Cc1noc(-c2cccn2C)n1	98.0
COc1ccc(OC)c(C2C(N3C(=O)c4c(Cl)c(Cl)c(Cl)c(Cl)c4C3=O)C(=O)N2c2cc(Cl)cc(Cl)c2)c1 (centres undefined)	109.9
Cc1cc(C)c(C2=NON3N(C(=O)c4ccccc4Cl)c4ccccc4N23)c(C)c1	98.5
CCCNC(=O)CCc1nc(N2CC(C)CC(C)C2)c2c(C)noc2n1 (centres undefined)	97.8
COc1ccc(NC(=O)N2CCN(c3cc(-c4cc(F)ccc4OC)ncn3)CC2)c(OC)c1	100.2
Cc1ccc(C2C3=C(CC(C)(C)CC3=O)Nc3ccc4ccccc4c32)cc1 (centres undefined)	103.7
COc1cccc2cc(C3=Nn4c(nnc4-c4ccccc4)SC3)c(=O)oc12	111.7
COc1ccc(CCNC(=O)CSc2nc3[nH]ncc3c(=O)n2-c2ccc(Cl)cc2Cl)cc1OC	121.8

SMILES	GIV-Gai inh
O=C(Nc1c(F)cc(F)cc1Br)c1cc(S(=O)(=O)N2CCN(c3ccccc3)CC2)ccc1F	106.4
COc1cccc(-c2cc(C(F)(F)F)n3nc(C(=O)N4CCCC4c4cc(C)no4)cc3n2)c1 (centres undefined)	101.7
COc1ccc2c(c1)C(O)(c1c(C)[nH]c3ccccc13)C(=O)N2 (centres undefined)	103.8
Clc1cccc(CSc2nc3ccccc3n3nnnc23)c1	94.9
COC(=O)C12Nc3ccccc3NC(c3ccccc3)=C1C(=O)C(=O)N2c1cccc(C(F)(F)F)c1 (centres undefined)	102.6
CCOc1ccc(C2=NN3C(C2)c2cccc(OC)c2OC3c2ccc(OC)c(OC)c2)cc1 (centres undefined)	115.3
CCOc1ccc(C2(O)CN(c3cc(OC)ccc3OC)C3=[N+]2CCCS3)cc1 (centres undefined)	106.3
COc1ccccc1N1CCN(c2cc(C)nc(-n3nc(C)cc3C)n2)CC1	100.7
O=c1ccc(-c2ccc3c(c2)OCO3)nn1CCc1nc(-c2ccc(Cl)c(F)c2)no1	100.9
Cc1ccc(N2C(=O)/C(=C/c3ccc(-c4ccc(Br)cc4)o3)C=C2c2ccccc2)cc1C	112.6
CCOc1ccccc1N=c1ssc2c1-c1cc(C)ccc1NC2(C)C	106.3
N#CC1=C(N)S[C@@H](C(=O)c2ccc(Br)cc2)[C@@H]1c1cccs1	124.0
O=C(NC1CCCC1)N1CCN(c2nc3cc(Br)ccc3n3cccc23)CC1	109.4
O=S(=O)(NC1CCCC1)c1cc(-c2nnc(C3CC3)o2)cs1	104.3
Cc1ccccc1NC1=NC(=S)N(c2cccc(C(F)(F)F)c2)C12CCC(C(C)(C)C)CC2 (centres undefined)	103.4

Arranged by the number under GIV-Gai inh (rising): 3 of the compounds above
mol | GIV-Gai inh
Cc1ccccc1NC1=NC(=S)N(c2cccc(C(F)(F)F)c2)C12CCC(C(C)(C)C)CC2 (centres undefined) | 103.4
CCC(=O)Nc1sc2c(c1C(=O)Nc1ccccc1CC)CCC2 | 115.0
CCOc1ccc(C2=NN3C(C2)c2cccc(OC)c2OC3c2ccc(OC)c(OC)c2)cc1 (centres undefined) | 115.3

Continuation.
SMILES	GIV-Gai inh
O=C(c1ccccc1F)N1CCN(Cc2noc(-c3ccccc3)n2)CC1	103.5
Cc1ccc(NC(=O)CSc2nc3cc(C(=O)NCC4CCCO4)ccc3c(=O)n2CC2CCCO2)cc1 (centres undefined)	110.2
CC(C)(C)C(=O)N1CCC2(C1)C(=O)Nc1ccccc12 (centres undefined)	102.9
COc1ccc2c(c1)NC1(CCN(C(=O)Nc3cc(Cl)ccc3OC)CC1)c1cccn1-2	109.2
Cc1ccc(C(=O)COC(=O)C(CCCCN2C(=O)C3C4C=CC(C4)C3C2=O)N2C(=O)C3C4C=CC(C4)C3C2=O)cc1C (centres undefined)	110.8
COc1ccc(N2C(=S)N=C(Nc3cc(Cl)ccc3C)C23CCCCC3)cc1	100.3
CCCNC(=O)N1CCC(N2CCN(Cc3ccc(C)cc3)C(=O)C2=O)CC1	96.0
CCCCCCCCOc1ccc(/C=C2\c3cc([N+](=O)[O-])ccc3-c3c2cc([N+](=O)[O-])cc3[N+](=O)[O-])cc1	119.6
CCOC(=O)C1=C(C)Nc2ncnn2C1c1cccs1 (centres undefined)	99.4
CCCCC(=O)Nc1ccc(N2CCC(C(N)=O)(N3CCCCC3)CC2)c(C(=O)O)c1	103.1
COc1ccc(C2CC(c3cccs3)=NN2c2nc(-c3ccc(S(=O)(=O)N4CCOCC4)cc3)cs2)cc1OC (centres undefined)	111.2
N#Cc1c(N)nc(SCC(=O)NCc2ccccc2)c(C#N)c1-c1ccccc1Cl	106.8
COc1ccc(C2=C/C(=C3/c4ccccc4-c4ncccc43)C(=O)O2)c(OC)c1	110.1
Cc1cccc(NC(=O)C(Cc2c[nH]c3ccccc23)NC(=O)OCc2ccccc2)c1 (centres undefined)	111.0
CN(C)CCCN1C(=O)CCn2c(-c3ccccc3)c(-c3ccccc3)c3cccc1c32	107.6

Pulled by structure from above (seven):
SMILES	GIV-Gai inh
CCOC(=O)C1=C(C)Nc2ncnn2C1c1cccs1 (centres undefined)	99.4
CN(C)CCCN1C(=O)CCn2c(-c3ccccc3)c(-c3ccccc3)c3cccc1c32	107.6
Cc1ccc(C(=O)COC(=O)C(CCCCN2C(=O)C3C4C=CC(C4)C3C2=O)N2C(=O)C3C4C=CC(C4)C3C2=O)cc1C (centres undefined)	110.8
COc1ccc(C2=C/C(=C3/c4ccccc4-c4ncccc43)C(=O)O2)c(OC)c1	110.1
N#Cc1c(N)nc(SCC(=O)NCc2ccccc2)c(C#N)c1-c1ccccc1Cl	106.8
CCCCC(=O)Nc1ccc(N2CCC(C(N)=O)(N3CCCCC3)CC2)c(C(=O)O)c1	103.1
COc1ccc(N2C(=S)N=C(Nc3cc(Cl)ccc3C)C23CCCCC3)cc1	100.3

Carrying on.
SMILES	GIV-Gai inh
Cc1ccccc1CNS(=O)(=O)c1c(C)sc(C)c1-c1n[nH]c(C)c1C	110.6
CCOCCCNC(=O)c1sc(N2CCOCC2)nc1COCC	99.9
O=S(=O)(c1ccc(F)cc1)N1CCC(c2noc(-c3ccc(F)cc3)n2)CC1	98.5
CCOC(=O)C1CCN(c2nnc(N3CCOCC3)c3ccccc23)CC1	103.1
CC1(C)Cc2ccccc2C(Nc2ccc(F)c(F)c2)=N1	111.4
O=C1CN(Cc2ccc(F)cc2)S(=O)(=O)c2ccccc2N1Cc1ccccc1F	106.3
CN(C)c1cc(OC2CCN(S(=O)(=O)c3cn(C)cn3)C2)ncn1 (centres undefined)	91.8
O=C(NC1CCCC1)N1CCN(Cc2nc3cccnc3n2-c2cccc(F)c2)CC1	106.2
CC(C)c1cc(C2CCCN2C(=O)Cn2nc(C(F)(F)F)c3c2CCCC3)on1 (centres undefined)	97.1
CCNc1cc(C)nc(Nc2ccc(NS(=O)(=O)c3ccc(OCC)cc3)cc2)n1	99.4
COc1ccc(CCNC(=O)c2ccc3c(c2)[nH]c(=S)n2c4ccccc4nc32)cc1OC	105.9
O=c1c2c(-c3ccco3)csc2[nH]c(=S)n1-c1ccccc1	96.0
Cc1cccn2c(=O)cc(COc3cccc(NC(=O)Nc4ccccc4Cl)c3)nc12	98.8
CCN(CC)c1nc2nonc2nc1N(CC)CC	109.5
CCOC(=O)c1c(C)oc2ccc(N(C(=O)c3ccccc3)S(=O)(=O)c3ccccc3)cc12	112.7

SMILES	GIV-Gai inh
O=C(NC1CCCCC1)N1CCCN(c2nc3cc(Br)ccc3n3cccc23)CC1	107.8
Cc1c(C(=O)NCCCN2CCOCC2)sc2ncn(CC(=O)Nc3cccc(C(F)(F)F)c3)c(=O)c12	100.6
COc1cc(-c2[nH]nc3c2C(c2ccccc2Br)C(C#N)=C(N)O3)cc(OC)c1OC (centres undefined)	98.6
COc1cccc(C2C(N3C(=O)c4ccccc4C3=O)C(=O)N2c2ccccc2OC)c1 (centres undefined)	114.4
CCCn1c(=O)c2sc(N3CCCC3)nc2n(CC(=O)NCCC2=CCCCC2)c1=O	95.4
CCOC(=O)c1c(C)nc(SC)nc1-c1ccccc1	120.1
O=C1/C(=C/c2ccc(-c3ccc(Br)cc3)o2)C=C(c2ccccc2)N1c1cccc(Br)c1	174.6
COc1ccc(OC)c(C2C3=C(CCCC3=O)Nc3ncnn32)c1 (centres undefined)	103.1
Cc1ccccc1-c1ncccc1C(=O)N1CCC(C(=O)NC2CCN(Cc3ccccc3)CC2)CC1	102.6
CCOC(=O)C1=C(O)/C(=C/c2cccc(O)c2)SC1=Nc1ccc(OC)cc1	113.0
N#CCCN1c2ccccc2Sc2ccc(C(F)(F)F)cc21	107.0
O=S(=O)(c1ccc(F)cc1F)N1CCN(c2ncnc3c2nnn3-c2ccccc2)CC1	101.2
COc1ccc(OC)c(Nc2nc3nonc3nc2Nc2cccc(Cl)c2)c1	104.2
O=C(CCc1nc(CSc2nnc(-c3ccccc3)o2)no1)Nc1ccc(Cl)cc1	103.4
COc1ccc(CCNS(=O)(=O)c2ccc(F)c(C(=O)Nc3ccccc3C(F)(F)F)c2)cc1OC	98.8
Cc1nc(CNC(=O)[C@H]2CCCN2S(=O)(=O)c2ccc3c(c2)oc(=O)n3C)cs1	102.3

Source: PubChem (ICCB-Longwood Screening Facility, Harvard Medical School)
